VACV Venus inh – vaccinia inhibition (Venus reporter). Vaccinia virus Venus reporter expression, fluorescence. AID 720580. hit rate 0.46% among 330,000. Potency, µM (series often up to 36.5 µM), inactives show top-dose activity change, negative = inhibition, most hits filed as inhibitors; active means well fitted inhibition curve with a large enough effect; inconclusive means small, poorly fitted or top-dose-only effect; inactive means no such curve, though single readings can be large or run the other way; tested in A549 cells; note: nearly all actives have a fitted effect of over 30% in size; inactives centre near -10
Vaccinia mCherry – vaccinia inhibition (mCherry reporter); hit rate 0.63% among 310,000; Potency, µM (doses to about 36.5 µM), for inactives: at the top dose activity change, negative = inhibition, hits mostly inhibitors; Vaccinia virus mCherry reporter infection, fluorescence; about a quarter of the inactives have no number; AID 720579; active = well fitted inhibition curve with a large enough effect; inconclusive = small, poorly fitted or top-dose-only effect; inactive = no such curve, though single readings can be large or run the other way; tested in A549 cells; note: nearly all actives have a fitted effect of over 35% in size; inactives centre near -10
Numbers without * were called inactive; & = joins results of further samples; [ ] = dose if it differs, or a comment. % is set by controls: 0 for no effect and ±100 for the full control effect; potency is the fitted concentration of half-maximal effect. Not a hit list. Share with any hit: about 0.87%.

`CSCCC(NS(=O)(=O)c1ccc2c(c1)OCCO2)C(=O)N(C)Cc1ccc(F)cc1` (stereo not given) gave VACV Venus inh 1% and Vaccinia mCherry -21%.
CC(=O)Nc1ccc(/C(N=Nc2ccccc2)=N/N=C(N)N)cc1 was read as VACV Venus inh -11% and Vaccinia mCherry -8%.
Screening CN(CC(=O)Nc1ccc(Cl)c(C(F)(F)F)c1)C(=O)/C=C/c1ccco1 returned VACV Venus inh -27% and Vaccinia mCherry inconclusive.
CCCCN(C)S(=O)(=O)c1ccc(C(=O)Nc2nnc(-c3ccco3)o2)cc1 was read as VACV Venus inh -21% and Vaccinia mCherry inconclusive.
`COc1cc(S(=O)(=O)N(Cc2ccc(C)cc2)C2CCCCC2)ccc1-n1cnnn1` gave VACV Venus inh -16% and Vaccinia mCherry -10%.
`CCOC(=O)C1=C(N)Oc2cc(C)oc(=O)c2C1c1cccnc1` (stereo not given) gave VACV Venus inh -14%.
For CC(C)(C)NS(=O)(=O)c1cnc(Cl)c(Cl)c1 the results were VACV Venus inh inconclusive.
Cc1cccc(Nc2nnc(-c3ccc(C)c(S(=O)(=O)N4CCCCC4)c3)c3ccccc23)c1 was read as VACV Venus inh -22% and Vaccinia mCherry -9%.
COc1cc(-c2cc(C(=O)N3CCCCCC3)c3ccccc3n2)cc(OC)c1OC was read as VACV Venus inh -10% and Vaccinia mCherry inactive.
`CCOc1ccc(CCNC(=O)CN2CCN(Cc3ccccc3C)C2=O)cc1OCC` gave VACV Venus inh 3%.
`CC(C)(C)CC(=O)NCCCCCCNC(=O)CC(C)(C)C` gave VACV Venus inh -11% and Vaccinia mCherry -16%.
For CCOCCCNC(=O)c1ccccc1SC the results were VACV Venus inh -10% and Vaccinia mCherry -9%.
Screening COc1ccc(/C=C/C(=O)Nc2ccc3nc(N4CCC(C)CC4)cc(C)c3c2)cc1OC returned VACV Venus inh -14%[7.34 µM] and Vaccinia mCherry -22%[7.34 µM].
Screening c1cncc(OC2CCN(Cc3ccc4c(c3)CN(Cc3ccc5c(c3)CCO5)CCO4)CC2)c1 returned VACV Venus inh -4% and Vaccinia mCherry -19%.
CC(=O)OC1CC(OC(C)=O)[C@]2(C)C(CC(=O)[C@]3(C)C2CC[C@@]2(C)C(C(=O)O)OC(=O)C4OC423)C1(C)C (stereo not given in full) was read as VACV Venus inh -19% and Vaccinia mCherry inactive.
O=C(CS(=O)(=O)c1cccc2nsnc12)Nc1cc(F)ccc1F was read as VACV Venus inh 3% and Vaccinia mCherry -9%.
For O=C1CN(C(=O)c2ccc(S(=O)(=O)N3CCCC3)cc2)C(c2ccccc2)c2cc(Cl)ccc2N1 (stereo not given) the results were VACV Venus inh -11% and Vaccinia mCherry -19%.
Screening Fc1ccc(CSc2ncnc3nc[nH]c23)cc1 returned VACV Venus inh -5% and Vaccinia mCherry inactive.
Screening O=C1c2ccccc2C2=Nc3ccccc3SC(c3ccc(Cl)cc3)C12 (stereo not given) returned VACV Venus inh -21% and Vaccinia mCherry -10%.
`CCOc1ccc(OCc2ccc(C(=O)N3CCc4ccccc4C3)o2)cc1` gave VACV Venus inh -13% and Vaccinia mCherry -1%.
`Cc1ccc(NC(=O)c2oc3ccc(S(=O)(=O)N4CCCCC4)cc3c2C)cc1Cl` gave VACV Venus inh -12% and Vaccinia mCherry -21%.
`C/C(=C/c1oc2ccc(O)cc2c1[N+](=O)[O-])N(C)C` gave VACV Venus inh -9% and Vaccinia mCherry -17%.
`C[C@H](CO)N1C[C@H](C)[C@@H](CN(C)C(=O)Nc2ccc(C(F)(F)F)cc2)Oc2ccc(NC(=O)Cc3ccccc3)cc2C1=O` gave VACV Venus inh -8% and Vaccinia mCherry -1%.
O=C(CN1C(=O)C(=O)N(C2CCCC2)C1=O)Nc1ccc([N+](=O)[O-])cc1 was read as VACV Venus inh -15% and Vaccinia mCherry inactive.
Cc1ccccc1CNC(=O)Cn1c(=O)c2cccn2c2cccnc21 was read as VACV Venus inh -2% and Vaccinia mCherry 1%.
Screening Cc1c(Cl)cccc1NC(=S)NCC(c1cccnc1)N(C)C (stereo not given) returned VACV Venus inh -10% and Vaccinia mCherry -4%.
`O=C(NCc1c(Cl)cccc1Cl)c1ccc2nnsc2c1` gave VACV Venus inh -6% and Vaccinia mCherry inactive.
Screening Cc1ccc(NC(=O)CSc2ccc(-c3ccco3)nn2)c(C)c1 returned VACV Venus inh -13% and Vaccinia mCherry inactive.
For Cc1cc2occ(CC(=O)OCC(=O)Nc3sc4c(c3C#N)CCC(C)C4)c2cc1C (stereo not given) the results were VACV Venus inh -12% and Vaccinia mCherry -3%.
`CC1=NN(c2ccccc2)C(=O)/C1=C/c1cccs1` gave VACV Venus inh -3% and Vaccinia mCherry -13%.
For O=C(COc1ncnc2sccc12)Nc1cccc(S(=O)(=O)N2CCCC2)c1 the results were VACV Venus inh 0%[7.34 µM] and Vaccinia mCherry inactive[7.34 µM].
`Cc1ccc(NC(N)=S)cc1C` gave VACV Venus inh -23% and Vaccinia mCherry -19%.
Screening Cc1cc(C)nc(NS(=O)(=O)c2ccc(NC(=O)c3cc4c(=O)n5cccc(C)c5nc4n3C)cc2)n1 returned VACV Venus inh 3% and Vaccinia mCherry -4%.
CSc1ccc(CCNC(=O)c2cc3n(n2)CCCN(Cc2ccc(C)cc2)C3=O)cc1 was read as VACV Venus inh -16% and Vaccinia mCherry -8%.
`COC(=O)c1ccccc1NC(=O)c1ccc(COc2cc(C)cc(C)c2)o1` gave VACV Venus inh -6%&4% and Vaccinia mCherry -4%.
CN1OC[C@@H]2CN[C@H](c3ccccc3Br)C[C@@H]21 was read as VACV Venus inh 1% and Vaccinia mCherry -16%.
For COc1ccccc1N(C)S(=O)(=O)c1ccc(C(=O)OCC(=O)N(C)c2ccccc2)cc1 the results were VACV Venus inh -1% and Vaccinia mCherry -3%.
Screening CC(C(=O)OCC(=O)N1CCCCC1)N1C(=O)c2ccccc2C1=O (stereo not given) returned VACV Venus inh -5% and Vaccinia mCherry -25%.
Screening CCN(CC)CCNC(=O)C1CCN(C(=O)c2cnn(-c3ccccc3)c2-n2cccc2)CC1 returned VACV Venus inh 2% and Vaccinia mCherry -8%.
For Cc1cnc(C)c(Nc2nc(C(N)CCc3ccccc3)cs2)n1 (stereo not given) the results were VACV Venus inh -4% and Vaccinia mCherry 17%.
For C=CCn1c(-c2csc3c2CCC(C)C3)n[nH]c1=S (stereo not given) the results were VACV Venus inh -23% and Vaccinia mCherry -11%.
`CSCC[C@H](NC(=O)OC(C)(C)C)C(=O)N/N=C/c1cc2ccc(C)cc2nc1Cl` gave VACV Venus inh -6% and Vaccinia mCherry -7%.
`COc1ccc(C(=O)Nc2nnc(S(=O)(=O)N(C)c3ccc(C)cc3)s2)cc1` gave VACV Venus inh -19% and Vaccinia mCherry -17%.
For CCOc1cc(CNc2ccc(S(N)(=O)=O)cc2)cc(Cl)c1OC the results were VACV Venus inh -14% and Vaccinia mCherry -20%.
For Cc1sc2nc(C(C)C)nc(SCC(=O)N3CCOCC3)c2c1C the results were VACV Venus inh -3% and Vaccinia mCherry -9%.
CCOC(=O)Cc1csc(NC(=O)/C=C\c2ccccc2Cl)n1 was read as VACV Venus inh -6% and Vaccinia mCherry -10%.
Cc1cc(C)cc(C(O)c2ncc(-c3ccccc3C(F)(F)F)[nH]2)c1 (stereo not given) was read as VACV Venus inh -17% and Vaccinia mCherry inconclusive.
For COc1cc(C2C(C(=O)c3cc4ccccc4o3)=C(O)C(=O)N2CCN2CCOCC2)ccc1OCCC(C)C (stereo not given) the results were VACV Venus inh -3% and Vaccinia mCherry -13%.
`CCOC(=O)c1nn(-c2ccccc2)c(=O)cc1OCC(=O)Nc1cc(C)ccc1OC` gave VACV Venus inh -1% and Vaccinia mCherry inactive.
For CCOC(=O)c1sc2nc(CC(=O)OC)nc(NCC(=O)OC)c2c1C the results were VACV Venus inh -7% and Vaccinia mCherry -8%.
CC(C)(C)c1ccc(C(O)c2ncc(-c3ccc(F)cc3)[nH]2)cc1 (stereo not given) was read as VACV Venus inh -11% and Vaccinia mCherry -4%.
CC(C)(C)n1nnnc1C(c1cccs1)N1CCCc2ccccc21 (stereo not given) was read as VACV Venus inh -19%.
Screening COC(=O)c1ccc(C(=O)Nc2ccc(F)cc2)cc1 returned VACV Venus inh -9% and Vaccinia mCherry -16%.
Screening COc1ccc(S(=O)(=O)NC(C)C)cc1C(=O)N1CCOCC1 returned VACV Venus inh 2% and Vaccinia mCherry 4%.
CC(Cc1ccsc1)NCc1cn[nH]c1-c1ccc(F)cc1F (stereo not given) was read as VACV Venus inh -12% and Vaccinia mCherry inconclusive.
Screening O=[N+]([O-])c1ccccc1S(=O)(=O)Nc1ccc(S(=O)(=O)Nc2nccs2)cc1 returned VACV Venus inh -9% and Vaccinia mCherry -27%.
Cc1ccc(S(=O)(=O)CCC(=O)OCC(=O)c2c[nH]c3ccccc23)cc1 was read as VACV Venus inh -4% and Vaccinia mCherry -7%.
`Cc1cccc(N2C(=O)CCC2=O)c1` gave VACV Venus inh -7% and Vaccinia mCherry -9%.
Cc1c(C(=O)NCCC2=CCCCC2)cccc1[N+](=O)[O-] was read as VACV Venus inh -15%.
For CCN(CC)C(=S)SCC(=O)Nc1nc(-c2ccccc2)c(-c2ccccc2)o1 the results were VACV Venus inh -18% and Vaccinia mCherry -20%.

Grouped by structure: the compounds so far with a nitro group on carbon (4)
`C/C(=C/c1oc2ccc(O)cc2c1[N+](=O)[O-])N(C)C` gave VACV Venus inh -9% and Vaccinia mCherry -17%.
O=C(CN1C(=O)C(=O)N(C2CCCC2)C1=O)Nc1ccc([N+](=O)[O-])cc1 was read as VACV Venus inh -15% and Vaccinia mCherry inactive.
Screening O=[N+]([O-])c1ccccc1S(=O)(=O)Nc1ccc(S(=O)(=O)Nc2nccs2)cc1 returned VACV Venus inh -9% and Vaccinia mCherry -27%.
Cc1c(C(=O)NCCC2=CCCCC2)cccc1[N+](=O)[O-] was read as VACV Venus inh -15%.

3 entries from above, sorted by formula weight, rising:
Cc1c(C(=O)NCCC2=CCCCC2)cccc1[N+](=O)[O-] was read as VACV Venus inh -15%.
Cc1ccc(S(=O)(=O)CCC(=O)OCC(=O)c2c[nH]c3ccccc23)cc1 was read as VACV Venus inh -4% and Vaccinia mCherry -7%.
For COc1cc(C2C(C(=O)c3cc4ccccc4o3)=C(O)C(=O)N2CCN2CCOCC2)ccc1OCCC(C)C (stereo not given) the results were VACV Venus inh -3% and Vaccinia mCherry -13%.

New compounds follow
`CCCn1c(-c2nonc2N)nc2ccccc21` gave VACV Venus inh -12% and Vaccinia mCherry -16%.
CCc1ccccc1N1CC(c2nc3ccccc3n2CCCCOc2ccccc2OC)CC1=O (stereo not given) was read as VACV Venus inh -20% and Vaccinia mCherry inconclusive.
COc1ccc(NC(=O)CC2C(=O)NC3CCCCC3N2C(=O)c2ccc(F)cc2)cc1 (stereo not given) was read as VACV Venus inh -2% and Vaccinia mCherry inactive.
Screening O=C1Cc2ccccc2C(=O)N1 returned VACV Venus inh -6% and Vaccinia mCherry -1%.
`CCCCOc1ccc(CSC(=N)N)cc1[N+](=O)[O-]` gave VACV Venus inh -16% and Vaccinia mCherry -6%.
CC(C)=CCN1CCN(Cc2coc3ccc(C)cc3c2=O)CC1CCO (stereo not given) was read as VACV Venus inh 0% and Vaccinia mCherry -12%.
For CCOc1ccc(OCCCN(C)C)cc1 the results were VACV Venus inh -16% and Vaccinia mCherry -11%.
O=C(Cn1ncc2c3ccccc3n(Cc3ccccc3)c2c1=O)NC1CCCC1 was read as VACV Venus inh 1% and Vaccinia mCherry -2%.
Screening CC(=O)c1ccc(NC(=O)CSC2=NS(=O)(=O)c3cc(Cl)ccc3N2)cc1 returned VACV Venus inh -1% and Vaccinia mCherry -10%.
Screening CCOC(=O)C1=C(CC)OC(N)=C(C#N)C1c1ccsc1 (stereo not given) returned VACV Venus inh -1% and Vaccinia mCherry inactive.
For O=C(NCc1cnn(-c2ccccc2)c1)C1CCC(=O)N(C2CC2)C1 (stereo not given) the results were VACV Venus inh -6% and Vaccinia mCherry -5%.
For Cc1ccc(NC2=C(Cl)C(=O)OC2OC(=O)c2ccc(C)cc2)cc1 (stereo not given) the results were VACV Venus inh -8% and Vaccinia mCherry inactive.
Screening Nc1nonc1-n1nnc(C(=O)N/N=C/c2ccncc2)c1CSc1ccc(Cl)cc1 returned VACV Venus inh 7%[7.34 µM] and Vaccinia mCherry -2%[7.34 µM].
`O=C(N/C(=C/c1ccc([N+](=O)[O-])cc1)C(=O)N1CCCC1)c1ccccc1` gave VACV Venus inh -2% and Vaccinia mCherry inconclusive.
Screening COc1ccc(O)c(/C=N/Nc2nc(C)cc(-c3ccccc3)n2)c1 returned VACV Venus inh -12%[7.34 µM] and Vaccinia mCherry -14%[7.34 µM].
Screening COc1cc(C(=O)NCCC(=O)NCc2cccs2)cc(OC)c1OC returned VACV Venus inh -4% and Vaccinia mCherry inactive.
For O=C(Nc1cc(Cl)ccc1Oc1ccccc1)C1=COCCO1 the results were VACV Venus inh -18% and Vaccinia mCherry -16%.
Screening COc1ccc(Cl)cc1NC(=O)c1cc(-c2ccc3c(c2)OCO3)on1 returned VACV Venus inh -5% and Vaccinia mCherry 3%.
COc1cc(/C=N/NC(=O)CSCc2ccc([N+](=O)[O-])cc2)cc(OC)c1OC was read as VACV Venus inh 4% and Vaccinia mCherry -4%.
For CCC1CN(CCNC(=O)c2ccccc2-n2cccn2)Cc2cc(OC)ccc2O1 (stereo not given) the results were VACV Venus inh -2% and Vaccinia mCherry -15%.
